Screening data (PubChem BioAssay)
Vaccinia Venus: inhibitors of vaccinia virus (Venus reporter); Potency, µM (series often up to 36.5 µM), without a hit: top-dose activity change, negative = inhibition, usual class: inhibitors; Vaccinia virus Venus reporter expression, fluorescence; hit rate 0.46% among 330,000; active means well fitted inhibition curve with a large enough effect; inconclusive means small, poorly fitted or top-dose-only effect; inactive means no such curve, though single readings can be large or run the other way; tested in A549 cells; note: nearly all actives have a fitted effect of over 30% in size; inactives centre near -10
VACV mCherry inh: vaccinia inhibition (mCherry reporter); Vaccinia virus mCherry reporter infection, fluorescence; about a quarter of the inactives have no number; Potency, µM (top dose mostly 36.5 µM), without a hit: at the highest dose activity change, negative = inhibition, actives largely listed as inhibitors; hit rate 0.63% among 310,000; active = well fitted inhibition curve with a large enough effect; inconclusive = small, poorly fitted or top-dose-only effect; inactive = no such curve, though single readings can be large or run the other way; tested in A549 cells; note: nearly all actives have a fitted effect of over 35% in size; inactives centre near -10
* marks the source's active call; other numbers are inactive results; & = joins results of further samples; [ ] = dose if it differs, or a comment. % is set by controls: 0 for no effect and ±100 for the full control effect; potency is the fitted concentration of half-maximal effect.

For Cc1ccc(N2CC(C(=O)Nc3ccc(C)c(S(=O)(=O)N(C)C)c3)CC2=O)cc1 (centres undefined) the results were Vaccinia Venus inconclusive and VACV mCherry inh inconclusive.
`c1ccc(Cn2nnnc2C(c2ccccn2)N2CCOCC2)cc1` (centres undefined) gave Vaccinia Venus -14.0% and VACV mCherry inh -12.0%.
`N#Cc1ccc(/C=N/NC(=O)CCc2ccc(S(=O)(=O)N3CCOCC3)cc2)cc1` gave Vaccinia Venus -22.3% and VACV mCherry inh -16.4%.
Screening CN(CCOc1ccccc1)C(=O)C1CCC(=O)N(CCN2CCOCC2)C1 (centres undefined) returned Vaccinia Venus -12.8% and VACV mCherry inh inactive.
For CSc1ccccc1NC(=O)C1C2CCC(C2)C1C(=O)O (centres undefined) the results were Vaccinia Venus -2.8% and VACV mCherry inh -10.1%.
For ClCc1csc(-c2ccc(Cl)cc2)n1 the results were Vaccinia Venus -18.3% and VACV mCherry inh -14.9%.
`CCCc1cc2c(=O)c(-c3ccc4c(c3)OCCO4)c(C)oc2cc1OS(C)(=O)=O` gave Vaccinia Venus inconclusive and VACV mCherry inh inconclusive.
For CSc1ccccc1NC(=O)CN(Cc1ccc(Cl)cc1)S(C)(=O)=O the results were Vaccinia Venus -11.0% and VACV mCherry inh -12.9%.
COc1ccc(S(=O)(=O)Nc2ccc(-c3cn4ccsc4n3)cc2)cc1C was read as Vaccinia Venus 1.7% and VACV mCherry inh -7.6%.
For CC(=O)N/N=C(\C)C1COc2ccccc2O1 (centres undefined) the results were Vaccinia Venus 0.7%[7.34 µM] and VACV mCherry inh inactive[7.34 µM].
COCCn1c(=NC(=O)c2ccccc2[N+](=O)[O-])sc2cc(S(C)(=O)=O)ccc21 was read as Vaccinia Venus -9.9% and VACV mCherry inh inactive.
For CCn1c(SCC(=O)NCc2ccc3c(c2)OCO3)nc2c(c1=O)SCC2 the results were Vaccinia Venus -10.1% and VACV mCherry inh -8.7%.
For O=C1C=C(c2ccccc2Oc2ccccc2)C[C@@H](c2ccc3c(c2)OCO3)C1 the results were Vaccinia Venus -16.5% and VACV mCherry inh -22.5%.
Screening Cn1c(=O)c([N+](=O)[O-])c(-n2ccnc2)c2ccccc21 returned Vaccinia Venus 0.2% and VACV mCherry inh -13.0%.
Screening Cc1nc(N)nc(N)c1CCCc1ccc(Cl)c(Cl)c1 returned Vaccinia Venus -71.2% and VACV mCherry inh -58.4%.

5 entries already listed, ordered by heavy-atom count, falling:
`CCCc1cc2c(=O)c(-c3ccc4c(c3)OCCO4)c(C)oc2cc1OS(C)(=O)=O` gave Vaccinia Venus inconclusive and VACV mCherry inh inconclusive.
COCCn1c(=NC(=O)c2ccccc2[N+](=O)[O-])sc2cc(S(C)(=O)=O)ccc21 was read as Vaccinia Venus -9.9% and VACV mCherry inh inactive.
For CSc1ccccc1NC(=O)C1C2CCC(C2)C1C(=O)O (centres undefined) the results were Vaccinia Venus -2.8% and VACV mCherry inh -10.1%.
Screening Cn1c(=O)c([N+](=O)[O-])c(-n2ccnc2)c2ccccc21 returned Vaccinia Venus 0.2% and VACV mCherry inh -13.0%.
For ClCc1csc(-c2ccc(Cl)cc2)n1 the results were Vaccinia Venus -18.3% and VACV mCherry inh -14.9%.

(further entries)
`COC(=O)Nc1nc(C)c(C(=O)N(C)C)s1` gave Vaccinia Venus -6.0%.
`COc1ccc2[nH]c3c(c2c1)CCN1C(=O)N([C@@H](C)C(=O)NCc2c(F)cccc2Cl)C(=O)[C@]31C` gave Vaccinia Venus -5.7% and VACV mCherry inh -1.5%.
Screening Cc1ccc(OCC(=O)Nc2ccc3[nH]c(=O)sc3c2)cc1 returned Vaccinia Venus 6.3% and VACV mCherry inh -7.2%.
For CCSc1ncc(Cl)c(C(=O)Nc2c(C(=O)c3ccc(C)c(F)c3)oc3ccccc23)n1 the results were Vaccinia Venus -2.5% and VACV mCherry inh -18.9%.
Screening Cc1cc(Br)ccc1NC(=O)CNC(=O)CN(C)Cc1nc2ccccc2c(=O)[nH]1 returned Vaccinia Venus -4.2% and VACV mCherry inh -13.6%.
`CC(C)NCC(O)COc1cccc2[nH]ccc12` (centres undefined) gave Vaccinia Venus -0.1% and VACV mCherry inh -7.9%.
For Cc1ccc(C#N)c(SCc2nnc(-c3ccc(Cl)cc3)o2)n1 the results were Vaccinia Venus -11.3% and VACV mCherry inh -11.9%.
Screening CCN(CC)S(=O)(=O)c1ccc(S(=O)(=O)N(Cc2ccccn2)Cc2ccco2)cc1 returned Vaccinia Venus -3.6% and VACV mCherry inh inactive.
For COCCCNc1ncnc2c1c(-c1ccccc1)cn2-c1ccc(C)c(Cl)c1 the results were Vaccinia Venus -9.2% and VACV mCherry inh -4.7%.
Screening CCOC(=O)c1cccc(-n2c(C)nc3ccccc3c2=O)c1 returned Vaccinia Venus -11.4% and VACV mCherry inh -20.3%.
Screening Cn1c(-c2ccccc2)cc2ccccc21 returned Vaccinia Venus 5.0% and VACV mCherry inh -7.9%.
Screening COC(=O)[C@@H]1CCCN1Cc1nc(Cc2ccc(OC)c(OC)c2)no1 returned Vaccinia Venus -7.4% and VACV mCherry inh -9.0%.
O=c1ccc2cc3c(-c4ccccc4)coc3cc2o1 was read as Vaccinia Venus -10.8% and VACV mCherry inh -3.9%.
Screening Cc1ccc(Cl)cc1NC(=O)CCS(=O)(=O)c1ccc2c(c1)n(C)c(=O)c(=O)n2C returned Vaccinia Venus 3.2%&-17.7% and VACV mCherry inh -7.8%&-16.2%.
For Cc1ccc2nc(NCc3ccco3)c(C=NCc3ccco3)c(=O)n2c1 the results were Vaccinia Venus -3.9% and VACV mCherry inh -14.5%.
For Cc1cc(C(F)(F)F)n(-c2nc(C(=O)Nc3cccnc3)cs2)n1 the results were Vaccinia Venus -3.4% and VACV mCherry inh -2.6%.
`COC(C(=O)Nc1ccc(Br)cc1F)c1ccccc1` (centres undefined) gave Vaccinia Venus -11.8% and VACV mCherry inh -23.5%.
`CCn1c(O)c(N=NC(=O)Cn2ccc(C(F)(F)F)n2)c2ccccc21` gave Vaccinia Venus -11.3% and VACV mCherry inh -19.5%.
`O=C(N/N=C/C(Br)=C/c1ccccc1)NC1CCCCC1` gave Vaccinia Venus -25.0% and VACV mCherry inh -10.3%.
Cc1c(C(=O)NCc2ccc(Cl)cc2)sc2nc3n(c(=O)c12)CCCCC3 was read as Vaccinia Venus -9.6% and VACV mCherry inh -11.1%.
Cc1cc(C)cc(OCC(=O)NCc2nc(-c3ccccc3)no2)c1 was read as Vaccinia Venus -6.5% and VACV mCherry inh inactive.
Screening Cc1ccc(S(=O)(=O)N2C3CCCCC3O[C@H]2CC(=O)c2ccccc2)cc1 (some centres undefined) returned Vaccinia Venus -2.9% and VACV mCherry inh -10.4%.
For O=S(=O)(c1ccc(Cl)cc1)c1nnn2c1nc(NCc1ccc3c(c1)OCO3)c1sccc12 the results were Vaccinia Venus inconclusive and VACV mCherry inh -4.1%.
Screening Cc1ccc(C2C(C(=O)c3cc4ccccc4o3)=C(O)C(=O)N2CCN(C)C)o1 (centres undefined) returned Vaccinia Venus -4.5% and VACV mCherry inh -6.8%.
`Cc1nc(N2CCOCC2)nc2c1CCCC2` gave Vaccinia Venus inconclusive.
`CCOc1ccc(Cn2c(CNS(=O)(=O)c3cccs3)nc3cccnc32)cc1` gave Vaccinia Venus 3.5% and VACV mCherry inh -7.0%.
Cc1ccc(CSc2nc3ccncc3[nH]2)cc1 was read as Vaccinia Venus -5.8% and VACV mCherry inh -10.2%.
`Cc1cc(C)c(C(=O)/C=C/c2ccco2)c(=O)[nH]1` gave Vaccinia Venus -0.7% and VACV mCherry inh -15.9%.
`O=C(CSc1nnc(-c2cccs2)n1Cc1ccco1)c1ccc2c(c1)OCO2` gave Vaccinia Venus -10.8%.
For CCOC(=O)C1(Cc2ccccc2)CCN(Cc2cnc(N3CCOCC3)s2)CC1 the results were Vaccinia Venus -0.2% and VACV mCherry inh -2.1%.

No new results follow: 2 of the compounds above.
`O=C(CSc1nnc(-c2cccs2)n1Cc1ccco1)c1ccc2c(c1)OCO2` gave Vaccinia Venus -10.8%.
For CCOC(=O)C1(Cc2ccccc2)CCN(Cc2cnc(N3CCOCC3)s2)CC1 the results were Vaccinia Venus -0.2% and VACV mCherry inh -2.1%.

(listing goes on)
For Cc1cc(C(=O)COC(=O)COc2ccc(C#N)cc2)c(C)n1C1CC1 the results were Vaccinia Venus -4.0% and VACV mCherry inh -6.4%.
For COC(=O)c1nnn(-c2cccc(C)c2)c1N the results were Vaccinia Venus 6.1% and VACV mCherry inh 4.3%.
CN(C)S(=O)(=O)c1cccc2c1C(=O)c1ccccc1C2=O was read as Vaccinia Venus -11.8% and VACV mCherry inh -15.8%.
Screening Cc1c(C=Nc2ccc(S(=O)(=O)CCO)cc2)c(O)[nH]c(=O)c1C#N returned Vaccinia Venus 0.0% and VACV mCherry inh inactive.
Nc1nc2cc3c(cc2cc1C(=O)NCc1ccc(F)cc1)OCO3 was read as Vaccinia Venus inconclusive and VACV mCherry inh inconclusive.
For CCCC(=O)N1c2ccc(-c3csc(N)n3)cc2CC1C (centres undefined) the results were Vaccinia Venus inconclusive and VACV mCherry inh inconclusive.
`Cc1ccccc1NS(=O)(=O)c1ccc(NC(=O)c2nc3ncccn3n2)cc1` gave Vaccinia Venus -21.1% and VACV mCherry inh -1.6%.
CCc1ccccc1NC(=O)Cn1nnc(C(=O)NCc2ccccc2Cl)c1N was read as Vaccinia Venus -23.2% and VACV mCherry inh -25.1%.
For O=C(NCc1ccc(F)cc1)c1cc2ccccc2o1 the results were Vaccinia Venus 0.0% and VACV mCherry inh inactive.
COc1ccc(C(=O)CCNc2ccc(F)cc2)cc1 was read as Vaccinia Venus -21.2% and VACV mCherry inh inconclusive.
`Cc1ccc(C)c(S(=O)(=O)N2CCCC2CNC(=O)C(=O)NCc2ccccc2C)c1` (centres undefined) gave Vaccinia Venus -20.2% and VACV mCherry inh -27.1%.
Cn1nccc1C(=O)OCC(=O)Nc1ccccc1 was read as Vaccinia Venus -2.5% and VACV mCherry inh -10.4%.
Screening CCN(CC)C(=O)C1CCN(CC2CC=CCC2)CC1 (centres undefined) returned Vaccinia Venus -7.9% and VACV mCherry inh -10.6%.
O=C(NC1CCCc2ccccc21)c1ccc(S(=O)(=O)N2CCOCC2)cc1 (centres undefined) was read as Vaccinia Venus -6.2% and VACV mCherry inh -1.4%.
`CCOc1ccc(OCC)c(NC(=O)CN2CCN(c3cc(C)ccc3C)CC2)c1` gave Vaccinia Venus -20.0% and VACV mCherry inh inactive.
For CC1CCCCN1Cc1c(C#N)c2ccccc2n1C (centres undefined) the results were Vaccinia Venus -12.2%.
O=C(NC(Cc1ccccc1)C(=O)O)/C(=C\c1ccco1)NC(=O)c1ccco1 (centres undefined) was read as Vaccinia Venus -7.0% and VACV mCherry inh inactive.
`COc1ccc(N2CCN(C(=O)c3nn(C)c4c3CS(=O)(=O)c3ccccc3-4)CC2)cc1` gave Vaccinia Venus -15.7% and VACV mCherry inh -3.2%.
Screening CN(C(=O)c1cccc(NC(=O)Cc2ccc(NC(=O)C3CCCN(C(=O)C4CCC4)C3)cc2)c1)C1CCCC1 (centres undefined) returned Vaccinia Venus -26.5% and VACV mCherry inh inactive.
For COCCNc1nc2c(c(=O)n(Cc3cccc(Br)c3)c(=O)n2C)n1C the results were Vaccinia Venus -7.4%&-12.9% and VACV mCherry inh -3.8%&-11.5%.
For O=C(NC(=S)Nc1c(Cl)ccc2nsnc12)c1ccco1 the results were Vaccinia Venus -15.5% and VACV mCherry inh -7.6%.
Screening COc1ccc(-n2c3c(c(=O)[nH]c2=O)C(NC(=O)c2ccccc2Cl)(C(F)(F)F)C(=O)N3)cc1 (centres undefined) returned Vaccinia Venus 5.8% and VACV mCherry inh -0.9%.
`CCN(Cc1nc(-c2ccccc2)no1)C(=O)c1ccc2c(c1)OCO2` gave Vaccinia Venus 3.5% and VACV mCherry inh -16.4%.
Screening CC(C)Cn1c(-c2csc3c2CCCC3)n[nH]c1=S returned Vaccinia Venus -16.9% and VACV mCherry inh -19.4%.
`Cc1c(C(=O)c2ccccc2)c2ccccn2c1CCC#N` gave Vaccinia Venus 0.0% and VACV mCherry inh inconclusive.
`O=C(O)/C=C/C(=O)Nc1cccc2cccnc12` gave Vaccinia Venus -18.6% and VACV mCherry inh inactive.
Screening COc1ccc(NC(=O)Cc2nnc(SCC(=O)Nc3ccccc3)n2C)cc1 returned Vaccinia Venus -2.1% and VACV mCherry inh inactive.
`CCOC(=O)c1ccc(NC(=O)c2nc(SC(C)C)ncc2Cl)cc1` gave Vaccinia Venus -1.1% and VACV mCherry inh -9.8%.
Screening O=C(CN1C(=O)C2CCCCC2C1=O)Nc1cccc([N+](=O)[O-])c1 (centres undefined) returned Vaccinia Venus -20.3% and VACV mCherry inh inactive.
[2H]C(CCOS(N)(=O)=O)c1ccccc1 (centres undefined) was read as Vaccinia Venus -18.3% and VACV mCherry inh -0.7%.
For COc1cccc(C2C(C(=O)c3ccco3)=C(O)C(=O)N2CCN(C)C)c1OC (centres undefined) the results were Vaccinia Venus -7.5% and VACV mCherry inh -15.2%.
Screening CN(CC(=O)Nc1ccccc1Br)C(=O)CN1CCN(c2ccccc2Cl)CC1 returned Vaccinia Venus -18.4% and VACV mCherry inh -7.2%.
`COc1ccc(NC(=O)CSc2nc(-c3ccccc3)c3ccccc3n2)cc1` gave Vaccinia Venus -7.2% and VACV mCherry inh -13.0%.
Screening Cc1ccc(CNC(=O)c2ccc(Cn3c(=O)c4ccccc4n(CC(=O)Nc4ccc(C)cc4)c3=O)cc2)cc1 returned Vaccinia Venus -3.0% and VACV mCherry inh -14.1%.
Screening CCN(CC)CCN1C(=O)c2ccccc2NC1c1ccccc1F (centres undefined) returned Vaccinia Venus -19.6% and VACV mCherry inh -29.0%.
CC(=O)Nc1ccccc1NC(=O)c1cc(C)ccc1C was read as Vaccinia Venus -0.1% and VACV mCherry inh -8.6%.
